Compound activity: PubChem BioAssay, several laboratories
Proteasome disasm = blocks ATP-dependent breakdown of the yeast 26S proteasome. anti-FLAG beads, GFP-proteasome disassembly, flow cytometry. inhibition of disassembly, % (concentration not given with the values). 24,000 compounds, 0.2% hits;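 active = above 40%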;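 note: plate controls were ATP control with full disassembly for no effect and ATP-gamma-S intact proteasomes for full effect; higher percent means more bead fluorescence retained so stronger block of disassembly; stock transfer was 100 nL into about 10 µL; wells with too few beads may also be inconclusive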
VCAM-1 rise = enhancers of VCAM-1 display on endothelial cells, cell-based, plate reader, pooled HUVEC, TNFa stimulus (AID 455) | augmentation, % at 5 µM | HUVEC TNFa-induced VCAM-1 immunofluorescence, plate reader; numbers were filed only for top-ranked candidate wells | 10,000 compounds, 0.2% hits;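 active = a compound raising TNF-alpha-driven VCAM-1 surface staining, with its hit status upheld on visual or statistical review; inactive = the rest, including hits rejected on review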;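 note: 0% = TNFa with vehicle and 100% = strongest image-checked hit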
* hit, by the source's call. This is a subset. The share of hits here may be higher or lower than overall.

`O=C(CSc1nc2ccsc2c(=O)n1NC(=O)c1ccccc1)NCc1ccco1` gave Proteasome disasm 1.5.
`COc1ccccc1-c1noc(-c2ccco2)n1` gave Proteasome disasm 0.9 and VCAM-1 rise inactive.
Screening Cc1ccc(S(=O)(=O)NCCC(=O)OCn2nnc3ccccc3c2=O)cc1 returned Proteasome disasm -3.8 and VCAM-1 rise inactive.
Screening O=C(c1cc2c(=O)oc3ccccc3c2s1)N1CCOCC1 returned Proteasome disasm -0.9.
Screening COc1cccc(C2C(C(N)=O)=C(C)Nc3nc(CCCO)nn32)c1OC (stereo unspecified) returned Proteasome disasm -0.9 and VCAM-1 rise inactive.
`CCOC(=O)N1CCN(C(=O)c2ccc3c(c2)sc2nc(-c4ccccc4)cn23)CC1` gave Proteasome disasm 3.1.
For CCN(CC)CCCNC(=O)Cn1ncc2c(=O)oc3ccc(C)cc3c21 the results were Proteasome disasm -2.0.
Screening COC(=O)c1cc(Br)c(=O)n(-c2nccs2)c1 returned Proteasome disasm 1.0 and VCAM-1 rise inactive.
`O=C(NCC(c1cccnc1)N1CCN(c2ccccc2F)CC1)c1cccc(Cl)c1` (stereo unspecified) gave Proteasome disasm -3.1.
Screening CC1CCN(C(=O)C2CCN(C(=O)c3cc4sccc4n3Cc3ccc(F)cc3)CC2)CC1 returned Proteasome disasm -0.5.

Taken from above, 5 compounds:
`CCOC(=O)N1CCN(C(=O)c2ccc3c(c2)sc2nc(-c4ccccc4)cn23)CC1` gave Proteasome disasm 3.1.
For CCN(CC)CCCNC(=O)Cn1ncc2c(=O)oc3ccc(C)cc3c21 the results were Proteasome disasm -2.0.
Screening COC(=O)c1cc(Br)c(=O)n(-c2nccs2)c1 returned Proteasome disasm 1.0 and VCAM-1 rise inactive.
`O=C(NCC(c1cccnc1)N1CCN(c2ccccc2F)CC1)c1cccc(Cl)c1` (stereo unspecified) gave Proteasome disasm -3.1.
Screening CC1CCN(C(=O)C2CCN(C(=O)c3cc4sccc4n3Cc3ccc(F)cc3)CC2)CC1 returned Proteasome disasm -0.5.

Next structures:
COc1ccc(N2Cc3cccc(C(=O)N4CCN(C(=O)c5ccco5)CC4)c3C2=O)cc1 was read as Proteasome disasm -1.3.
For Cc1csc2nc(CSc3ccc(Cl)cc3)cn12 the results were Proteasome disasm 3.8 and VCAM-1 rise inactive.
Screening Cc1oc(-c2ccc(Cl)cc2)[n+]([O-])c1C returned Proteasome disasm 1.0.
For COC(=O)c1nnn(-c2ccccc2)c1N the results were Proteasome disasm -1.2 and VCAM-1 rise inactive.
CC(=O)Nc1ccc(NC(=O)c2ccccc2N(C)S(C)(=O)=O)cc1 was read as Proteasome disasm -1.0 and VCAM-1 rise inactive.
O=C(O)C1CCCCC1C(=O)Nc1cnn(Cc2ccccc2)c1 (stereo unspecified) was read as Proteasome disasm 0.0.
O=C(NCc1cccs1)C1CCN(c2nc3ccccc3o2)CC1 was read as Proteasome disasm 1.0.
For O=C(Nc1ccc2c(c1)C(=O)N(C1CCCCC1)C2=O)C1CCCO1 (stereo unspecified) the results were Proteasome disasm 3.6 and VCAM-1 rise inactive.
`O=C(CSc1nc2c(sc3ccccc32)c(=O)n1Cc1ccco1)NCC1CCCO1` (stereo unspecified) gave Proteasome disasm -1.4 and VCAM-1 rise inactive.
Cc1cc2cc(CNC(=O)CC(C)C)ccc2n1C was read as Proteasome disasm -2.5.

By substructure: the compounds so far containing an aryl methoxy group (3)
`COc1ccccc1-c1noc(-c2ccco2)n1` gave Proteasome disasm 0.9 and VCAM-1 rise inactive.
Screening COc1cccc(C2C(C(N)=O)=C(C)Nc3nc(CCCO)nn32)c1OC (stereo unspecified) returned Proteasome disasm -0.9 and VCAM-1 rise inactive.
COc1ccc(N2Cc3cccc(C(=O)N4CCN(C(=O)c5ccco5)CC4)c3C2=O)cc1 was read as Proteasome disasm -1.3.

(more compounds)
Screening Cc1oc(-c2ccc(Cl)cc2)nc1CN1CCC(C(=O)NCc2cccnc2)CC1 returned Proteasome disasm 8.4.
`C=CCn1c(=N)c(C(=O)NCCCOC)cc2c(=O)n3cc(C)ccc3nc21` gave Proteasome disasm 0.1.
Screening O=C(C1CCC(=O)N1Cc1cccnc1)N1CCN(c2ccc(F)cc2)CC1 (stereo unspecified) returned Proteasome disasm -1.9.
`COc1cccc(Cn2c(=S)[nH]c3ccc(N4CCOCC4)cc3c2=O)c1` gave Proteasome disasm -0.5.
`CCCS(=O)(=O)NCCc1cc2c(OC)ccc(OC)c2[nH]c1=O` gave Proteasome disasm -1.2.
Screening COc1nnc(OC)c2ccccc12 returned Proteasome disasm -0.6.
Screening O=C(CCn1cccc1)NCCc1ccc(Cl)cc1 returned Proteasome disasm 3.7.
CC(=O)Nc1cccc(Oc2nc(C)cc(C)c2C#N)c1 was read as Proteasome disasm -0.6 and VCAM-1 rise inactive.
O=C(CN1CCN(CCC(=O)Nc2ccccc2F)CC1)Nc1ccc(Cl)cc1 was read as Proteasome disasm 0.0.
CCOC(=O)c1[nH]c(C)c(C(=O)N(C)Cc2ccccc2)c1C was read as Proteasome disasm 1.9.
For CCCc1cc(C(=O)Nc2cc(C)nn2-c2ccccc2)no1 the results were Proteasome disasm 0.8.
CN1CCN(C2=C(Cl)C(=O)N(c3cccc(Cl)c3)C2=O)CC1 was read as Proteasome disasm 2.0 and VCAM-1 rise inactive.
For CCSC1=C(C#N)C(c2ccccc2OC)CC(=O)N1 (stereo unspecified) the results were Proteasome disasm 0.4 and VCAM-1 rise inactive.
`O=C(NCc1cccnc1)c1cccc(C(F)(F)F)c1` gave Proteasome disasm 0.2 and VCAM-1 rise inactive.
`CC1(C)Cc2noc(N)c2C(C)(C)N1OC(=O)c1scc2c1OCCO2` gave Proteasome disasm -0.2.
`COc1ccc(C(=O)NCCSc2ccccn2)cc1` gave Proteasome disasm 0.2 and VCAM-1 rise inactive.
Cc1c(C(=O)O)oc2ccc(S(=O)(=O)NCc3ccccc3)cc12 was read as Proteasome disasm -2.3 and VCAM-1 rise inactive.
For O=C(NC1CCCCC1)c1cc(-c2ccco2)on1 the results were Proteasome disasm 0.1.
`CCCCNC(=O)CCC(=O)Nc1ccc2nc(N3CCOCC3)cc(C)c2c1` gave Proteasome disasm -0.8.
Screening Cc1cccc(C)c1NC(=O)C1(NC(=O)C2CCCN2C(=O)OC(C)(C)C)CCCCC1 (stereo unspecified) returned Proteasome disasm -1.7.
CCOC(=O)N1CCN(C(=O)CS(=O)(=O)c2cn(Cc3ccccc3C)c3ccccc23)CC1 was read as Proteasome disasm 0.9.
For Cc1ccc(S(=O)(=O)c2c(C)nn(C(C)(C)C)c2OC(=O)C(C)(C)C)cc1 the results were Proteasome disasm 0.3.
`Cc1ccc(C2C(C#N)=C(N)Oc3nc(-c4ccccc4)[nH]c32)o1` (stereo unspecified) gave Proteasome disasm 0.2.
For O=C1Cc2ccccc2C(=O)N1CCc1ccccc1 the results were Proteasome disasm 2.2.
`COc1ccc(N2C(=O)C3CCCN3C2c2ccc(F)cc2)cc1Cl` (stereo unspecified) gave Proteasome disasm 11 and VCAM-1 rise inactive.
Screening CCOC(=O)C1CSC(CC(=O)Nc2ccc(Cl)cc2)C(=O)N1 (stereo unspecified) returned Proteasome disasm -0.7 and VCAM-1 rise inactive.
For Cn1cccc1Cc1nnc(SCC(=O)Nc2cccc(F)c2)n1CCc1ccccc1 the results were Proteasome disasm 2.3.
Screening O=C(CCn1cccc1)NC1CCCc2ccccc21 (stereo unspecified) returned Proteasome disasm 3.0.
O=C(NCc1ccccc1Cl)C1CCN(C(=O)c2sccc2-n2cccc2)CC1 was read as Proteasome disasm -1.0.
`CC1(C)CC2(CC(C)(C)N1)OC(=O)N1CCc3ccccc3C12C` (stereo unspecified) gave Proteasome disasm 11.
CC(C)(CC(=O)O)Cc1nc(-c2ccc(Cl)cc2)no1 was read as Proteasome disasm -2.8.
N#Cc1c(NC(=O)c2cc(C3CC3)on2)sc2c1CCC2 was read as Proteasome disasm -1.3.
Screening CCN(CCCNC(=O)CCc1nc(-c2ccc(C)cc2)no1)c1cccc(C)c1 returned Proteasome disasm 0.3.
Screening CCCCCCC(C)n1[nH]c(=O)c2c(C)cc(=O)[nH]c21 (stereo unspecified) returned Proteasome disasm 1.2 and VCAM-1 rise inactive.
`COc1ccc(NC(=O)C2C(=O)N(C)C3(C)CC2c2ccccc2O3)cc1` (stereo unspecified) gave Proteasome disasm 0.9.
CCOc1ccc(CCNS(=O)(=O)c2cnc[nH]2)cc1OCC was read as Proteasome disasm -2.2.
CCOC(=O)c1c(NC(=O)CSc2nnc(-c3cccnc3)o2)sc(C)c1C was read as Proteasome disasm 0.1 and VCAM-1 rise inactive.
For CCOc1ccc(C(=O)Nc2c3c(nn2-c2cccc(Cl)c2)CS(=O)C3)cc1 (stereo unspecified) the results were Proteasome disasm -1.9.
COCCNC(=O)NC1(C(F)(F)F)Oc2ccc(Cl)cc2O1 (stereo unspecified) was read as Proteasome disasm -1.9.
Screening CCCN(CCC)S(=O)(=O)c1ccc(NS(C)(=O)=O)cc1 returned Proteasome disasm -0.9 and VCAM-1 rise inactive.
`COc1cc2c(=O)n(Cc3ccco3)c(=O)n(CC(=O)c3cccc(Br)c3)c2cc1OC` gave Proteasome disasm 0.1.
Cc1oc(-c2ccccc2F)nc1CN1CCC(C(=O)NCc2cccs2)CC1 was read as Proteasome disasm 0.1.
For Cc1ccc(C2N(c3nccs3)C(=O)C3CCCN32)cc1 (stereo unspecified) the results were Proteasome disasm -0.1.
`Cc1ccc2c(c1)-c1cc(C)nn1C(c1ccc3c(c1)OCO3)N2` (stereo unspecified) gave Proteasome disasm -0.6 and VCAM-1 rise inactive.
Screening CCOC(=O)c1c(NC(=O)c2cccs2)sc(C)c1C returned Proteasome disasm -0.2 and VCAM-1 rise inactive.
COc1ccc(C2CC(c3ccccc3C)n3nc(N)nc3N2)cc1 (stereo unspecified) was read as Proteasome disasm 0.1.
Screening CCOC(=O)CC(=O)CSc1nc(-c2cccnc2)cc(C)c1C#N returned Proteasome disasm -0.5.
O=C(O)CCc1ccc(-c2cccs2)n1-c1ccc(C(=O)O)cc1 was read as Proteasome disasm -0.5.
Screening COC(=O)C1Cc2c([nH]c3ccccc23)C(C)N1 (stereo unspecified) returned Proteasome disasm 1.2.
For Cc1ccc(CN2CCSc3ccc(C(=O)N4CCN(c5ncccn5)CC4)cc32)cc1 the results were Proteasome disasm 0.1.
`COc1ccc(-n2ccnc2SCC(=O)Nc2ccc(OC)cc2OC)cc1` gave Proteasome disasm 0.1.
`N[C@@H](C(=O)N[C@@H]1C(=O)N2C(C(=O)O)=C(Cl)CS[C@H]12)c1ccccc1` gave Proteasome disasm 1.4 and VCAM-1 rise inactive.
For CCS(=O)(=O)n1nc(-c2ccccc2)cc1N the results were Proteasome disasm 3.7.
Cc1ccc(C)c(CN2C(=O)C3(OCCCO3)c3ccccc32)c1 was read as Proteasome disasm 1.9.
Screening COCCN(CCOC)S(=O)(=O)c1ccc(C(=O)Nc2nc(-c3ccncc3)cs2)cc1 returned Proteasome disasm -0.2.
Screening CCOc1cccc(OCCOCCN2CCCC2)c1 returned Proteasome disasm 0.4 and VCAM-1 rise inactive.
Screening COC(=O)C1CCN(C(=O)CSc2nnc(-c3ccncc3)o2)CC1 returned Proteasome disasm 3.3 and VCAM-1 rise inactive.
CCN(CC)c1ccc(NC(=O)c2cnc3ccccn3c2=O)c(C)c1 was read as Proteasome disasm -0.7.
For CC(C)(C)c1ccc(S(=O)(=O)N2CCN(CCC#N)CC2)cc1 the results were Proteasome disasm 0.3.
For CCc1nc2c(cnn2-c2ccc(Cl)cc2)c(=O)n1-c1ccc2c(c1)OCCO2 the results were Proteasome disasm -0.3 and VCAM-1 rise inactive.
For CCCNS(=O)(=O)c1ccc2c(c1)CCCN2C(C)=O the results were Proteasome disasm -2.7.
For Cc1c(C(=O)O)cnc2cc(-c3ccc(Cl)cc3)nn12 the results were Proteasome disasm 2.3.
Screening C=CCSC1=C(C#N)C(c2ccccc2)CC(=O)N1 (stereo unspecified) returned Proteasome disasm -2.2 and VCAM-1 rise inactive.
Screening CC(C)C(NC(=O)c1ccccc1NC(=O)c1ccco1)C(=O)O (stereo unspecified) returned Proteasome disasm 2.2 and VCAM-1 rise inactive.
For CCOC(=O)N1CCN(C(=O)c2ccc3c(SCC(=O)O)c4c(nc3c2)CCC4)CC1 the results were Proteasome disasm 0.8.
`Cc1cc(C(=O)Nc2cnn(Cc3ccc(Cl)cc3Cl)c2)no1` gave Proteasome disasm 0.0.
Screening O=c1cc(N2CCc3ccccc3C2)[nH]c(=O)n1C1CCCCC1 returned Proteasome disasm 24.
For O=C(NC1CCCCC1)C1CCN(S(=O)(=O)N2CCCCCC2)CC1 the results were Proteasome disasm -1.3.
Cc1ccc(NC(=O)C2CCN(S(=O)(=O)c3cnc[nH]3)CC2)nc1 was read as Proteasome disasm -1.4.
`O=S(=O)(c1ccc2c(c1)OCCO2)N(Cc1ccc(F)cc1)Cc1nnc(-c2cccs2)o1` gave Proteasome disasm -2.3 and VCAM-1 rise inactive.
For O=C(CCn1c(=O)[nH]c2ccccc2c1=O)NCCCN1CCN(c2cccc(Cl)c2)CC1 the results were Proteasome disasm 1.7.
For Clc1cccc(-c2nnc(-c3ccccc3)o2)c1 the results were Proteasome disasm 0.2.
`O=C(Nc1cccc(Br)c1)c1ccn[nH]1` gave Proteasome disasm 3.5.
`CC1(C)C(c2ccccc2)=NC(c2ccc(F)cc2)N1O` (stereo unspecified) gave Proteasome disasm 0.2.
For O=C(O)c1nc2ccccc2nc1C(=O)O the results were Proteasome disasm 3.1.
`Cc1cc(=O)n2nc(N3CCC(C(=O)NCCc4ccccc4)CC3)sc2n1` gave Proteasome disasm 1.7.
For COc1cccc(NC(=O)N2CCN(c3cccc(C)c3C)CC2)c1 the results were Proteasome disasm 1.0 and VCAM-1 rise 100*.
`CC1(C)CC(=O)C2=C(C1)OC(N)=C(C#N)C2c1ccccc1OC(=O)N1CCOCC1` (stereo unspecified) gave Proteasome disasm -1.6.
